# Compound activity (PubChem BioAssay)
# Vaccinia mCherry – vaccinia inhibition (mCherry reporter). Vaccinia virus mCherry reporter infection, fluorescence; about a quarter of the inactives have no number. Potency, µM (highest dose often 36.5 µM), for the others: at the top dose activity change, negative = inhibition, usual class: inhibitors. actives 0.63% (n = 310,000). AID 720579; active = well fitted inhibition curve with a large enough effect; inconclusive = small, poorly fitted or top-dose-only effect; inactive = no such curve, though single readings can be large or run the other way; tested in A549 cells; also: nearly all actives have a fitted effect of over 35% in size; inactives centre near -10
# VACV Venus inh – inhibitors of vaccinia virus (Venus reporter); Vaccinia virus Venus reporter expression, fluorescence; Potency, µM (highest dose often 36.5 µM), inactives show top-dose activity change, negative = inhibition, most hits filed as inhibitors; actives 0.46% (n = 330,000); AID 720580; active means well fitted inhibition curve with a large enough effect; inconclusive means small, poorly fitted or top-dose-only effect; inactive means no such curve, though single readings can be large or run the other way; tested in A549 cells; also: nearly all actives have a fitted effect of over 30% in size; inactives centre near -10
# Active calls of the source: *; i = inactive; ? = inconclusive; nt = no result given; & = joins results of further samples; [ ] = dose if it differs, or a comment. % is scaled to controls: 0 for no effect and ±100 for the full control effect; potency is read from the fitted curve at half-maximal effect.
SMILES,Vaccinia mCherry,VACV Venus inh
COC(=O)c1c(C)n(-c2ccc(OC)cc2)c2ccc(O)cc12,nt,?
COc1cc(NC(=O)Cn2c(C)cc(C)c(C#N)c2=O)cc(OC)c1,-10%,-8%
COc1ccc(-c2nnn(CC(=O)N(Cc3cccs3)C(C)C(=O)NCCC(C)C)n2)cc1OC (stereo not given),-14%[1.46 µM],-29%
Cc1cc(C)n(/N=C/c2ccccc2O)c(=O)c1,-8%,-5%
CCOc1ccc(-c2csc3nc[nH]c(=O)c23)cc1,-20%,-5%
CCOC(=O)c1cc(-c2ccccc2)nc2c1c(C)nn2-c1ccccn1,nt,?
Clc1nc(NCc2cccnc2)nc(N2CCOCC2)n1,-13%,-9%
OC(COc1ccc(Cl)cc1Cl)Cn1ccnc1 (stereo not given),-13%,-4%
COc1ccc(NC(=O)c2sc3cc(C(F)(F)F)cnc3c2-c2cccs2)cc1,nt,-15%
O=Cc1ccc(Sc2ncccn2)o1,i,-8%
COc1ccc(NC(=O)CCn2cnnn2)cc1,-1%,-15%
CCCCN1C(=O)C(CC(=O)NCc2cccc3ccccc23)CC(C(=O)N(C)C)=C1C (stereo not given),-23%,-11%
CC(=O)N1CCOC12CCN(Cc1ccccc1)CC2,i,-8%
CCCc1nc2sc(C(=O)OCC)c(N)c2c2c1COC(C)(C)C2,i,?
COc1ccccc1CC(=O)O/N=C(\N)c1cccc([N+](=O)[O-])c1,-13%,-10%
COc1ccc(CCNC(=O)NCCc2c[nH]c3ccccc23)cc1OC,-3%,-20%
CCC(=O)Nc1cc(-c2nc3ncccc3o2)ccc1Cl,-12%,-7%
CCC1CCCCN1S(=O)(=O)c1ccc(NC(=O)c2cccs2)cc1 (stereo not given),-13%,-9%
CC(C)CN1C(Nc2ccccc2)=NC[C@@H]1C,i,-3%
c1ccc(CCN2CCOCC2)cc1,i,-12%
O=C(CSc1nc2c([nH]c3ccccc32)c(=O)n1-c1ccccc1F)Nc1cccc(Cl)c1,-28%,-22%
Cc1ccccc1S(=O)(=O)c1cc(C#N)c(=O)[nH]c1N,-3%,-5%
CN1C(=O)C(O)N=C(c2ccccc2)c2ccccc21 (stereo not given),-13%,5%
CCCC1(CCC)C(=O)NC(=NCc2ccccc2)NC1=O,?,16µM*

# As entered above:
# CCC1CCCCN1S(=O)(=O)c1ccc(NC(=O)c2cccs2)cc1 (stereo not given) in Vaccinia mCherry reads -13%
# c1ccc(CCN2CCOCC2)cc1 in VACV Venus inh reads -12%
# CC(C)CN1C(Nc2ccccc2)=NC[C@@H]1C in VACV Venus inh reads -3%
# CCC(=O)Nc1cc(-c2nc3ncccc3o2)ccc1Cl in Vaccinia mCherry reads -12%
# COc1ccc(CCNC(=O)NCCc2c[nH]c3ccccc23)cc1OC in Vaccinia mCherry reads -3%

# The list continues.
SMILES,Vaccinia mCherry,VACV Venus inh
CCCc1nnc(NC(=O)CCCN2C(=O)c3ccccc3C2=O)s1,i,-6%
O=C(Cn1cc(SCc2ccc(C(F)(F)F)cc2)c2ccccc21)N1CCCCC1,-18%,-19%
Cc1ccc(NC(=O)C/C(N)=N/OC(=O)c2ccccc2)cc1,-9%,-2%
COc1cc2c(cc1NC(=O)c1ccc(C(C)(C)C)cc1)CCCC2,10µM*,5%
Cc1cc(C(=O)N2CCc3ccccc32)ccc1[N+](=O)[O-],i,-15%
Cc1ccc(SCC(=O)OCC(=O)N(C)CC(=O)Nc2ccc(F)cc2)cc1C,i,-13%
COc1ccc(NC(=O)CCNS(=O)(=O)c2cc(Br)ccc2Br)cc1S(N)(=O)=O,-11%,-16%
COc1ccccc1OCCn1cc(C(=O)O)c2ccccc21,-8%,-8%
CCN(CCn1cccn1)C(=O)c1ccc(OC2CCN(C(=O)CCOC)CC2)cc1,-26%,-2%
CCOc1ccc(NC(=O)CSc2nnc(C3CC3)n2C2CC2)cc1,-20%,-18%
Nc1[nH][nH]c(=O)c1N=Nc1ccccc1,0%,-11%
CC(OC(=O)CCc1nc2ccccc2[nH]c1=O)c1ccccc1 (stereo not given),-13%,-4%
CC1(C)C(=O)OC(c2ccccc2)C(C)(C)C1=O (stereo not given),i,-4%
CCC(C(=O)Nc1ccccc1)c1ccccc1 (stereo not given),-5%,-7%
CC(C)(C)c1cc(-c2n[nH]c(=S)n2-c2ccc(Cl)cc2)n[nH]1,-5%,-14%
COc1ccc(CC2(C)OC(c3ccncc3)=NN2C(C)=O)cc1 (stereo not given),i,-5%
CC1Cc2cc(S(=O)(=O)N3CCN(c4ccc(Cl)cc4)CC3)ccc2N1C(=O)C1CC1 (stereo not given),-14%,-11%
Cc1cc(F)ccc1NC(=O)c1sc2nc(-c3cccs3)ccc2c1N,-20%,-12%
O=C(CSc1ncnc2scc(-c3ccccc3)c12)N1CCN(c2ccccc2F)CC1,-13%,-21%
O=C(CCN1C(=O)/C(=C/c2ccc(F)cc2)SC1=S)Nc1cccnc1,3%,3%
CCCCCNC(=O)c1ccc2c(c1)nc(C)n2-c1cccc(C)c1,i,-9%
COC(=O)c1cc(CNC(=O)c2cccc(N(C)C)c2)cc(NC(=O)c2ccccc2Cl)c1,-12%,-19%
COc1ccc(Cl)cc1C(=O)OCC(=O)NC1CCCC(C)C1C (stereo not given),-12%,-5%
CCC1CCCCN1CCCn1c(=S)[nH]c2ccccc2c1=O (stereo not given),nt,-7%
CSc1nnc2[nH]c(=O)cc(C)n12,i,-10%
COc1cc(NC(=O)C2CCN(S(=O)(=O)c3cccs3)CC2)cc(OC)c1,-28%,-21%
CC(=O)c1cc(-c2ccc(F)cc2)n(CCC(=O)NC(C)(C)C)c1C,-19%,-20%
CCC1NC(=O)c2cc3ccccc3cc2-n2c1nc1cc(OC)c(OC)cc1c2=O (stereo not given),-19%,?
CN(C)c1ccc(N=Cc2ccco2)cc1,i,-9%
COc1ccc(OC)c(C2C(C#N)=C(N)N(N(C)C)C3=C2C(=O)CC(C)(C)C3)c1 (stereo not given),i,-8%
Cc1c(C(=O)NCc2ccccc2Cl)sc2nc(-c3ccc(F)cc3)cn12,-20%,-18%
O=c1[nH]c(C2CCCCC2)nc2ccccc12,-12%,-17%
CC(=O)c1c(C)[nH]c(C(=O)OCC(=O)Nc2ccccc2Cl)c1C,?,-27%
O=C(Cc1ccccc1)Nc1cccc(N2CCCC2)c1,-19%,1%
COc1cc(C(C)=O)ccc1OCC(=O)Nc1ccc(S(=O)(=O)N2CCCCC2)cc1,i,-23%
CC1CCCCCCC1OC(=O)c1ccccc1C(=O)O (stereo not given),-11%,-7%

# Single records, as listed above. Order of screens: Vaccinia mCherry | VACV Venus inh
# COc1ccc(OC)c(C2C(C#N)=C(N)N(N(C)C)C3=C2C(=O)CC(C)(C)C3)c1 (stereo not given) in the list: i | -8%
# CSc1nnc2[nH]c(=O)cc(C)n12 in the list: i | -10%
# O=c1[nH]c(C2CCCCC2)nc2ccccc12 in the list: -12% | -17%
# COc1cc(NC(=O)C2CCN(S(=O)(=O)c3cccs3)CC2)cc(OC)c1 in the list: -28% | -21%
# CCC1NC(=O)c2cc3ccccc3cc2-n2c1nc1cc(OC)c(OC)cc1c2=O (stereo not given) in the list: -19% | ?

# The list goes on:
SMILES,Vaccinia mCherry,VACV Venus inh
CS(=O)(=O)c1ccc(Cl)c(NC(=O)COC(=O)CCc2c[nH]c3ccccc23)c1,i,-15%
Cn1cc(Cl)nc1C(O)c1ccccc1 (stereo not given),-11%,-11%
Cc1ccc2oc(Nc3nc(C)cc(C)n3)nc2c1,-11%,-7%
Cc1cc2ccccn2c1C(=O)c1cc([N+](=O)[O-])cc([N+](=O)[O-])c1,?,?
Cc1cn2c(=O)c(C(=O)N3CCN(c4ccccc4)CC3)cnc2s1,-13%,-10%
CCn1c(=O)c2sccc2n2c(CCCC(=O)N3CCN(c4ccc(OC)cc4)CC3)nnc12,-16%,-13%
CN(C(=O)c1ccc(NC(=O)Cc2ccccc2)cc1)c1ccccc1,-2%,-18%
COc1ccc(S(N)(=O)=O)cc1C(=O)NCCCN1CCN(c2ccc(C)cc2)CC1,-10%[1.46 µM],-11%
O=C(Nc1ccc(F)cc1)c1ccc2c(=O)n(CC3CCCO3)c(=S)[nH]c2c1 (stereo not given),-12%,-7%
Cc1ccc(C(=O)N2CCN(S(=O)(=O)c3ccc(C)c([N+](=O)[O-])c3)C2)cc1,-12%,-15%
CCc1nc2c(nnn2Cc2ccc(F)cc2)c(=O)[nH]1,i,-7%
NCCCC[C@@H](C(=O)NCCCCCCCCCCC(=O)N1CCNCC1)n1cc(CCCC(=O)O)nn1,i,-7%

# Another view of 4 compounds above:
smiles: CS(=O)(=O)c1ccc(Cl)c(NC(=O)COC(=O)CCc2c[nH]c3ccccc23)c1
  Vaccinia mCherry = i
  VACV Venus inh = -15%

smiles: Cn1cc(Cl)nc1C(O)c1ccccc1 (stereo not given)
  Vaccinia mCherry = -11%
  VACV Venus inh = -11%

smiles: Cc1ccc2oc(Nc3nc(C)cc(C)n3)nc2c1
  Vaccinia mCherry = -11%
  VACV Venus inh = -7%

smiles: Cc1cc2ccccn2c1C(=O)c1cc([N+](=O)[O-])cc([N+](=O)[O-])c1
  Vaccinia mCherry = ?
  VACV Venus inh = ?

# Later entries.
SMILES,Vaccinia mCherry,VACV Venus inh
Cn1c(=O)c2c(nc(NCCCO)n2CCc2ccccc2)n(C)c1=O,-17%,-14%
Cc1nn(C)c(C)c1CN(C)C(=O)c1cc2n(n1)C(C(F)(F)F)CC(c1cccs1)N2 (stereo not given),nt,-21%
O=S1(=O)[C@H]2C[C@@H]3CC[C@]2(CN1Cc1cccc(F)c1)O3,i,-15%
COc1cccc(CNC(=O)CCC2CCCN(C(=O)c3ccccc3N(C)C)C2)c1 (stereo not given),-7%,-21%
CCOc1ccc(C(=O)NCCS(=O)(=O)N2CCN(c3ccccc3F)CC2)cc1OCC,i,-10%
Cc1nnc(N2CCC(C(=O)NCCc3ccccc3Cl)CC2)c2nn(-c3ccccc3)c(C)c12,28µM*,?
Fc1ccc2[nH]c3c(NCc4ccccc4)ncnc3c2c1,?,?
O=C(Cn1cnc2c(nnn2Cc2ccc(F)cc2)c1=O)Nc1ccccc1,i,-12%
NNc1nc2c(F)cc(F)cc2s1,-29%,-11%
O=C(Nc1cc2c(cc1[N+](=O)[O-])OCCO2)c1cccnc1,-7%,0%
CC(C)n1nnnc1SCC(=O)Nc1ccccc1F,13%,0%
CCCCCC(=O)Nc1cccc(C2=NOC3(C2)C[C@H](C(N)=O)N(C(=O)[C@H]2CCC(=O)N2)C3)c1 (stereo not given in full),i,4%
CCOC(=O)c1ccccc1NC(=O)COC(=O)C(Cc1c[nH]c2ccccc12)NC(C)=O (stereo not given),-13%,-10%
CC(C)(O)C#Cc1ccc([C@@H]2C[C@H]3CN(c4ccccc4)C(=O)[C@]34CCCN24)s1,?,?
O=C(O)C[C@H]1c2ccc(C(F)(F)F)cc2S(=O)(=O)N1C1CCCCC1,-10%&-12%,-10%&-7%
CCOC(=O)c1sc(NC(=O)C(C)(C)C)cc1C,-2%,-16%
COc1ccc2[nH]c3c(=O)n(N)c(C)nc3c2c1,-10%,-11%
CN(C)C(/C=C/Nc1cccc(Br)c1)=C(C#N)C#N,-6%,0%
COc1cc(-c2nnc(SCC(=O)N3CCCC3)o2)cc(OC)c1OC,nt,?
CC(C)(C)C(=O)NCCCc1ccccc1,nt,-17%
CCOC(=O)c1c(C)n(C)c2ccc(OCC(O)CNC(CC)CO)cc12 (stereo not given),nt,-23%
CC(C)c1ccc(OCC(=O)Nc2cccc(C(=O)Nc3ccccc3C(=O)O)c2)cc1,-3%,4%
Cc1ccccc1Cn1c2ccccc2c2cnn(CC(=O)NC3CCC(C)CC3)c(=O)c21 (stereo not given),-17%,-9%
Cc1ccc(NC(=O)c2ccc3c(c2)OCCO3)cc1S(=O)(=O)Nc1cccc(Cl)c1,-23%,?
O=C(NNC(=O)c1sc2cccc(Cl)c2c1Cl)NC1CCCCC1,3%,-2%
O=C1Nc2ccccc2Sc2ccccc21,i,-11%
Cc1ccc(SCC(=O)NC(=O)c2ccccc2Br)c(C)c1,-14%,-7%
Cn1c(C(=O)NCc2ccccc2Cl)cc2sc(Cl)cc21,-10%,-7%
Cn1c(=O)c2c(nc(NC(Cc3ccccc3)C(=O)O)n2Cc2ccccc2)n(C)c1=O (stereo not given),nt,-8%
CC1(Cc2ccccc2C#N)C(=O)Nc2cc(-c3ccccc3Cl)ccc21 (stereo not given),-6%,9%
COc1ccccc1N1CCN(S(=O)(=O)c2ccc3c(c2)oc(=O)n3C)CC1,?,-5%&-8%
CN1CCN(C(=O)C2=C[C@H](c3ccc(C(F)(F)F)cc3)C[C@H](OCc3ccc(CO)cc3)O2)CC1,i,-22%
Cc1cccc2nc(-c3ccccc3)nc(N[C@@H](CO)c3ccccc3)c12,?,-21%
CSc1nnc(-c2ccco2)c(-c2ccco2)n1,-4%,-29%
CCOC(=O)/C=c1\s/c(=C\c2ccc(C#N)cc2)c(=O)n1CC(=O)NCc1ccco1,-3%,6%
COc1c2c(c(C)c3c1C(=O)OC3)O[C@@]1(C)CC[C@@]3(O)C(C)(C)OC(=O)CC[C@]3(C)[C@H]1C2,34%[activator],3%
Cn1c(SCC(=O)N2CCCC2=O)nc2ccccc21,-4%,-3%
CCNc1ccc(C(=O)OCC(=O)NC(C)c2ccccc2)cc1[N+](=O)[O-] (stereo not given),-11%,-24%
Cc1ccccc1N(Cc1nnc2n1CCCCC2)C(=O)Nc1ccccc1,nt,-6%
